From PubChem
PK Bst = alters activity of Bacillus stearothermophilus pyruvate kinase | Potency, µM | 51,000 tested, 1.2% active | AID 361 | partly purified Bacillus stearothermophilus pyruvate kinase, luminescence ATP production; ribose 5-phosphate activator present at AC10; in the data active means potency below about 11 µM; inconclusive means mostly about 12 µM to 25 µM; inactive means weaker than that;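 the screen sought inhibitors and activators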;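 further: potency means the concentration at half of the fitted maximal effect; scaled between full activation by ribose 5 phosphate and full inhibition by luteolin; about four in five hits inhibit and the cells do not say which; series up to 57 µM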
TsaE inh = displaces an ADP probe from E. coli YjeE (TsaE). P0AF67. purified YjeE, fluorescence polarisation of a bound ADP probe. Potency, µM. 71,000 tested, 0.05% active; active = well fitted falling curve; inconclusive = weaker or top-dose-only fall, or a rising curve; inactive = flat or poorly fitted curve;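 further: top concentration of the series not given in the record; excess ADP was the control for the full effect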
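Fluorescence polarization of a BODIPY Texas Red–ADP probe (2 uM) bound to purified YjeE (10 uM) was read after 15 min room-temperature incubation with compounds. Loss of polarization marks inhibitors; ADP serves as titrated control.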
The depositor's hits bear a star; i = inactive; . = no result given; & = joins results of further samples.

Structure	TsaE inh	PK Bst
COCCCNC(=O)C(C#N)c1nc2ccccc2nc1N1CCN(Cc2ccccc2)CC1 (centres undefined)	.	>25.6
CCC(c1nnnn1Cc1ccco1)N(CCc1ccccc1)Cc1cc2cccc(C)c2[nH]c1=O (centres undefined)	i	>57
COc1ccc(OC)c(CNC(=O)CCNC(=O)Cn2ccc3ccccc3c2=O)c1	i	>57
CC12CN3CC(C)(CN(C1)C3c1cc(Br)ccc1O)C2=O (centres undefined)	i	.
CCOC(=O)N1CCN(Cc2nc3c(c(=O)[nH]c(=O)n3C)n2CCCc2ccccc2)CC1	i	>57
CN(C)P(=NC(=O)COc1ccc(Cl)cc1Cl)(N(C)C)N(C)C	i	>57
O=C(Nc1sc2c(c1C(=O)O)CCCC2)c1cccs1	i	.
CC(C)CCOc1ccc(Cl)cc1CN1CCOCC1	.	>25.6
O=C1C=C(OCc2ccccc2)CN1	i	>57
CCC(=O)N1CCN(c2ccccc2NC(=O)Cc2ccccc2)CC1	i	>57
CC(Nc1cc(=O)n(C)c(=O)n1C)c1ccccc1 (centres undefined)	i	>57
CCn1c(SCC(=O)Nc2nc3c(s2)CCCC3)nc2c1c(=O)n(C)c(=O)n2C	i	>57
CC1(C)CC(=O)C(C(c2ccncc2)C2C(=O)CC(C)(C)CC2=O)C(=O)C1	i	>57
O=C(O)COc1ccc(S(=O)(=O)NCCc2ccccc2)cc1	i	.
COc1ccc(CCn2nnnc2C(CC(C)C)N2CCN(c3ncccn3)CC2)cc1OC (centres undefined)	i	>57
COCCn1c(=O)c(C)nc2cnc(N3CCOCC3)nc21	i	.
CCOC(=O)N1CCN(C(=O)CN(Cc2ccc(Cl)cc2)S(C)(=O)=O)CC1	i	>57
CCOC(=O)N1CCN(C(=O)C2CC(c3ccc(F)cc3)=NO2)CC1 (centres undefined)	i	.
O=C(COC(=O)CCc1c[nH]c2ccccc12)NC1CCS(=O)(=O)C1 (centres undefined)	i	>57
CCN(CC)C(=O)c1cncc(C(=O)N(CC)CC)c1-c1ccccc1	i	>57
Cc1ccc(Cl)cc1NC(=O)Cn1cccc1	i	>57
O=C(c1ccco1)N1CCC[C@@]2(CCN(c3ccccc3)C2)C1	i	.
CCOC(=O)N1CCC(NC(=O)CCC(=O)N2CC(C)Oc3ccc(C)cc32)CC1 (centres undefined)	i	>57
CCCOc1ccc(Cc2nn3c(=O)/c(=C/c4ccco4)sc3nc2=O)cc1	i	>57
O=C(NCc1ccco1)Nc1ccc(Br)cc1	i	.

Record cards, as listed above:
Results for CC1(C)CC(=O)C(C(c2ccncc2)C2C(=O)CC(C)(C)CC2=O)C(=O)C1 : TsaE inh: i; PK Bst: >57
Results for CC(Nc1cc(=O)n(C)c(=O)n1C)c1ccccc1 (centres undefined) : TsaE inh: i; PK Bst: >57

(further entries)
Structure	TsaE inh	PK Bst
Cc1cccc2cc3c(nc12)SC(=NCC1CCCO1)N(Cc1ccco1)C3 (centres undefined)	i	>57
Cc1cc(NCc2ccc(F)cc2Cl)n2nnnc2n1	i	>57
CCCn1c(=O)c2ccccc2n2c(SCCOc3ccccc3)nnc12	i	.
O=C(NCc1ccc2c(c1)OCO2)c1cccc(Cl)c1	i	>57
COc1ccc(OC)c(NC(=O)C2CCCN2C(=O)OCc2ccccc2)c1 (centres undefined)	i	>57
O/N=C1/C2C3CC4C5C3C1C5C1(OCCO1)C42 (centres undefined)	i	>57
CC(=O)c1cccc(NC(=O)NC(C)C2CCCO2)c1 (centres undefined)	i	>57
Cc1noc(C)c1-c1cncnc1-n1ccnc1	i	.
O=C(NC1CCCC1)C1CCCN1C(=O)Nc1ccccc1Cl (centres undefined)	i	>57
CC(C)c1nnc(NC(=O)CCS(=O)(=O)c2nc(-c3cccs3)cc(C(F)(F)F)n2)s1	i	>57
CC(=O)N1CCCc2cc(S(=O)(=O)Nc3ccc4c(c3)OCO4)ccc21	i	>57
CC1CC(=O)C=C(O)C1C(=O)OC(C)(C)C (centres undefined)	i	>57
CCOC(=O)N1CCC(NC(=O)c2cc3c(-c4ccc(OC)c(OC)c4)nn(C)c3s2)CC1	i	>57
COC(=O)[C@@]1(Cc2ccc(OC)cc2)[C@H]2c3cc(C(=O)N4CCCC4)n(CCc4c[nH]c5ccc(OC)cc45)c3C[C@H]2CN1C(=O)c1ccccc1	i	.
CCN(c1ccccc1)S(=O)(=O)c1ccc(NCC2COc3ccccc3O2)nc1 (centres undefined)	i	>57
Cc1ccc(-c2cc(C(=O)NCc3ccc4c(c3)OCO4)[nH]n2)c(O)c1C	i	>57
Cc1cccc(CS(=O)(=O)Cc2ccc(C(=O)NCc3cccnc3)o2)c1	i	>57
CCc1ccc2[nH]c(=O)c(CN(CCCN3CCOCC3)C(=O)Nc3ccc(Cl)cc3)cc2c1	i	6.62*
Cc1ccc2[nH]c(=O)c(CN(CCCN3CCOCC3)C(=O)NC3CCCCC3)cc2c1	i	>57
CCCc1c(C)c2cc(C)ccc2[nH]c1=O	i	.
CC(C)CCNC(=O)NC(=O)COC(=O)C1=COCCO1	i	>57
O=C(NC1CCS(=O)(=O)C1)c1cccc(S(=O)(=O)N2CCCCC2)c1 (centres undefined)	i	>57
Cc1ccc(C)c(-n2nnnc2SCC(=O)Nc2cccc(-c3nnc4n3CCCCC4)c2)c1	i	.
CC(C)c1nc2oc3c(NCc4cccnc4)ncnc3c2c2c1CCC2	i	>57
CC1CCCN(CCCNC(=O)C2CC(=O)N(c3ccc(F)c(Cl)c3)C2)C1 (centres undefined)	i	>57
Cc1cc(C)n(-c2nc(C)nc(NCc3ccccc3)n2)n1	i	.
CC(=O)Nc1cc(NC(=O)C2C3C=CC(C3)C2C(=O)O)ccc1Cl (centres undefined)	i	>57
O=C(NCc1ccccn1)c1cc2ccccc2oc1=O	i	>57
Clc1ccc(Cc2noc(Cc3ccccc3)n2)cc1Cl	i	>11.4
COc1ccc(N2CCn3c2nc2c3c(=O)n(CCCc3ccccc3)c(=O)n2C)c(OC)c1	i	>57
Cc1onc(-c2ccccc2Cl)c1C(=O)Nc1cccc2nsnc12	i	>57
NNC(=O)c1ccncc1	i	>25.6
c1ccc(CCc2nc(-c3ccccn3)no2)cc1	i	>57
O=C(Cn1c(-c2ccccc2)noc1=O)NCc1ccccc1	i	>57
O=C(NC12CC3CC(CC(C3)C1)C2)N1CCC(O)(c2ccc3c(c2)OCO3)CC1	i	>57
COC(=O)c1ccccc1S(=O)(=O)N1CCC(c2nc3ccccc3o2)CC1	i	>57
Cc1ccc(S(=O)(=O)Cn2nnnc2CN2CCN(Cc3ccc4c(c3)OCO4)CC2)cc1	i	>57
COC(=O)C1(C)NC(c2ccc(O)cc2)C2C(=O)N(c3ccc4c(c3)OCCO4)C(=O)C21 (centres undefined)	i	>57
COC(=O)C1C(=O)CC(C)(O)C(C(=O)OC)C1c1ccccc1F (centres undefined)	.	>25.6
O=c1cc(-c2ccccc2O)oc2ccc3ccccc3c12	i	.
Brc1cccc(-c2nnc(SCc3ccon3)n2-c2ccccc2)c1	i	.
C/C=C/c1ccc(OCCN2C(=O)NC(C)(C)C2=O)c(OC)c1	i	>57
O=C(Cn1cnnn1)OCC(=O)c1ccc(Cl)s1	i	>57
O=C(NCc1ccccc1)N(Cc1cc2cc3c(cc2[nH]c1=O)OCCO3)CC1CCCO1 (centres undefined)	i	>57
CCc1noc(C)c1C(=O)Nc1sc(C(=O)N(C)C)c(C)c1C(=O)OC	i	>57
CCOc1ccc(NC(=O)Nc2ccc3c(c2)N(C)C(=O)CS3)cc1	i	.
OCC1N=C(c2ccccn2)OC1c1ccccc1 (centres undefined)	i	>57
Cc1sc(NC(=O)CSc2nnc(-c3ccc(F)cc3)o2)c(C#N)c1C	i	>57
CCN(CC)c1ccc(NC(=O)c2ccc(Br)o2)cc1	i	.
O=c1c(-c2cc(F)cc(F)c2)nc2cnc(N3CCOCC3)nc2n1Cc1cccs1	i	.

PK Bst: hit marks shown above
Structure	TsaE inh	PK Bst
CCc1ccc2[nH]c(=O)c(CN(CCCN3CCOCC3)C(=O)Nc3ccc(Cl)cc3)cc2c1	i	6.62*

New compounds follow
Structure	TsaE inh	PK Bst
C[C@H](NC(=O)OC(C)(C)C)c1nnc(SCC(=O)c2ccc(Cl)cc2)o1	i	>57
Cn1c(Cn2c(=O)sc3ccccc32)nnc1SCc1cccnc1	i	.
COCC(=O)N1CCC2(CC1)CN(Cc1ccc(C#N)cc1)C2	i	.
CCN(Cc1cc2cc(C)ccc2[nH]c1=O)C(=O)c1cccc(OC)c1	i	>57
Cc1ccc(-n2c(N)c(C(=O)N3CCCCC3)sc2=S)cc1	i	>57
CCOC(=O)N1CCC(N2C(=O)c3ccc(C(=O)NCc4ccc(F)cc4)cc3C2=O)CC1	i	.
COc1cc2c(C(=O)NCc3ccccn3)cn(C)c(=O)c2cc1OC	i	>57
CC(=O)c1cnc(Nc2nc(C)c3cc(C)ccc3n2)nc1C	i	>57
CCCCN1C(=O)C(O)(CC(=O)c2c(C)n[nH]c2C)c2cc(Br)ccc21 (centres undefined)	i	>57
Cc1nnc(NC(=O)C2CCN(c3nnnn3-c3ccccc3)CC2)s1	i	>57
OC(COc1ccc2ccccc2c1Br)Cn1ccnc1 (centres undefined)	i	>57
C[N+](C)(C)[C@H](Cc1c[nH]c(=S)[nH]1)C(=O)O	i	.
Cc1ccc(S(=O)(=O)N(CC(O)CN2CCCC2)c2ccccc2)cc1 (centres undefined)	i	>57
CCOC(=O)Cc1csc(NC(=O)CSc2nnc(-n3nc(C)cc3C)c3ccccc23)n1	i	>57
Brc1ccc(Oc2nnnn2-c2ccccc2)cc1	i	.
COc1ccccc1-c1noc(-c2ccccc2C(=O)N2CCOCC2)n1	i	>57
Cc1cccn2cc(CNc3ccccc3)nc12	i	>57
Cc1nn(CC(=O)Nc2ccc(C(=O)N3CCCC3)cc2)c(=O)c2ccccc12	i	>57
COc1nc(NCC(C)C)nc(Oc2ccc(=O)n(-c3ccccc3)n2)n1	i	.
Cn1c(C(C#N)C2=C(Cl)C(=O)N(c3ccccc3)C2=O)nc2ccccc21 (centres undefined)	i	>57
Cc1cc2nnc(SC3CCOC3=O)n2c2ccccc12 (centres undefined)	i	>57
COC(=O)c1ccc(N2C(=O)CC(N3CCN(C(=O)c4ccco4)CC3)C2=O)cc1 (centres undefined)	.	>25.6
Nc1nc(-c2cccnc2)nn1C(=O)c1ccco1	i	>57
CN(C)Cc1cc(C(C)(C)C)cc(CN(C)C)c1O	i	.
COc1ccc2[nH]c(=O)c(CN(Cc3cccnc3)C(=O)Nc3ccccc3)cc2c1	i	i
CN(C)C(=O)Nc1ccc(F)cc1F	i	>57
COC(=O)C1(C)C=CC2(CCCCC2)N1C(=O)c1ccccc1 (centres undefined)	i	.
Cc1ccccc1NC(=O)C1CC(Cl)=CCC1C(=O)O (centres undefined)	i	.
O=C(CN1CCC(n2nnc3cc(C(F)(F)F)ccc32)CC1)Nc1ccc2c(c1)OCCO2	i	>57
COc1cc2nc(N3CCN(C(=O)C4CCCO4)CC3)nc(N)c2cc1OC (centres undefined)	i	>57&>25.6
CCC(=O)N(CCc1ccccc1C)Cc1cc2cc3c(cc2[nH]c1=O)OCO3	i	>57
CC(C)(C)NC(=O)C(c1ccncc1)N(C(=O)c1csnn1)C1CC1 (centres undefined)	i	9.09*
CCNC(=O)N(C)c1nncnc1C(=O)NC	.	>25.6
Cc1ccc(C2CC(=O)N3CN(c4ccc(Br)cc4)CSC3=C2C#N)o1 (centres undefined)	i	>57
CCN(CC)CCN1C(=O)C(=O)/C(=C(/O)c2ccc(OCC(C)C)cc2)C1c1ccncc1 (centres undefined)	i	>57
Oc1cccc(-c2nc3ccccc3s2)c1	i	9.1*
COCc1nnc(NC(=O)c2cccs2)s1	i	>57
CC(NC(=O)c1nn(C)c(=O)c2ccccc12)c1ccc(F)cc1 (centres undefined)	i	>57
COc1cccc(C2=N/C(=C\N(C)C)C(=O)O2)c1	i	.
O=C(O)CCSc1nc2ccccc2s1	i	>57
Cc1c(C(=O)NCCN2CCOCC2)oc2ccc(S(=O)(=O)N3CCCCCC3)cc12	i	>57
Cc1ccc(CNC(=O)C(OC(=O)c2ccco2)C(C)C)cc1 (centres undefined)	i	>57
CC(C)NCC[C@@H](O)c1cc2ccccc2o1	i	.
Cc1cc(C)cc(N(C(=O)c2ccc3c(c2)OCO3)C2C=CS(=O)(=O)C2)c1 (centres undefined)	i	>57
C/C=C/Cn1c(SC)nc2c1c(=O)[nH]c(=O)n2C	i	>57
CCn1c(SCC(=O)N2CCN(c3ccc(F)cc3)CC2)nc2ccccc2c1=O	i	>57
C1CCCN(CCCCN2CCCCCC2)CC1	.	>25.6

These rows are one share of the data (hit frequency here may not be typical).
